Source: PubChem BioAssay
H5N1 CPE = MDCK cell protection from H5N1 avian flu. cytopathic effect, luminescence, 72 h; hits give high values; no value below 0 was filed and about half of the inactive calls have no number; reference of the scale not given here. hit rate 0.07% among 96,000. inhibition, % at 50 µM; in the data active = inhibition above about 25%
* marks the source's active call; other numbers are inactive results; i = inactive. Not all compounds are listed (hit frequency here may not be typical).

nr	SMILES	H5N1 CPE
1	Cc1nc2ccccc2c2oc(C(=O)NCC3CCCO3)cc12 (configuration not stated)	i
2	COc1cccc2cc(C(=O)NCc3ccco3)c(=Nc3ccc(C(=O)O)cc3)oc12	5.3
3	CCOc1c2ccc(C(=O)NCc3ccc4c(c3)OCO4)cc2nn1CCOC	i
4	CC1(C)Cc2c(cnn2-c2ccccc2)C(=O)/C1=N\NC(=O)c1ccccc1O	i
5	O=C(CSc1nc(-c2ccccc2)cs1)N1CCN(C(=O)c2ccco2)CC1	0.3
6	Cc1cc(C)c(NC(=O)CSc2nc(COc3ccccc3)nc3ccccc23)c(C)c1	i
7	Nc1cc(Cl)ccc1Oc1ccc2ccccc2c1	i
8	Cn1nc(CC(=O)NC2CCCCCCCCCCC2)c2ccccc2c1=O	i
9	CCOc1ccc(C2c3c(oc4cc(C)c(C)cc4c3=O)C(=O)N2CCCN2CCOCC2)cc1 (configuration not stated)	1.4
10	CCC(=O)N1CCc2cc(S(=O)(=O)NCCCOC)ccc21	i
11	O=C(CSc1nc(C2CC2)nc2ccccc12)N1CCc2ccccc2C1	0.7
12	CCN(C(=O)CSc1nnc(Cc2cccc3ccccc23)n1N)C1CCS(=O)(=O)C1 (configuration not stated)	0.1
13	CCCC(c1nnnn1CCC(C)C)N1CCC(C(N)=O)CC1 (configuration not stated)	1.0
14	Cc1ccc(S(=O)(=O)c2c(N)n(CCN3CCOCC3)c3nc4ccccc4nc23)cc1C	i
15	CC(C)(C)N(NC(=O)Nc1ccc(Cl)cc1)C(=O)c1ccccc1	i
16	COC(=O)c1nnc(-c2ccccc2)nc1OC	1.1
17	Cc1cccc(NCc2nc(SCC(N)=O)n[nH]2)c1	i
18	CC(C)(C)NC(=O)NC(=O)CSc1ncc(C(F)(F)F)cc1Cl	i
19	Cn1c(=O)c2c(nc(CN3CCN(C(=O)c4ccco4)CC3)n2CCCc2ccccc2)n(C)c1=O	2.4
20	CC1(CCc2ccccc2)NC(=O)N(Cc2nnc(-c3ccccc3Br)o2)C1=O (configuration not stated)	1.2
21	COC(=O)c1ccc(C)c(NS(=O)(=O)c2ccc(OC)cc2)c1	0.3
22	COc1ccc(C2=NOC(C(=O)Nc3c(C)n(C)n(-c4ccccc4)c3=O)C2)cc1OC (configuration not stated)	i
23	CC(=O)Nc1ccc(N/C=C/C(=O)c2ccco2)cc1	1.6
24	NC(=O)CNC(=O)[C@@H]1CC2(CC(c3ccc(Cl)cc3)=NO2)CN1C(=O)c1ccccc1 (some centres not stated)	i
25	O=C(O)CCCCCn1c(SCC(=O)N2CCCC2)nc2ccsc2c1=O	2.3

7 entries out of the list, ordered by molecular weight, rising:
nr	SMILES	H5N1 CPE
16	COC(=O)c1nnc(-c2ccccc2)nc1OC	1.1
10	CCC(=O)N1CCc2cc(S(=O)(=O)NCCCOC)ccc21	i
21	COC(=O)c1ccc(C)c(NS(=O)(=O)c2ccc(OC)cc2)c1	0.3
11	O=C(CSc1nc(C2CC2)nc2ccccc12)N1CCc2ccccc2C1	0.7
20	CC1(CCc2ccccc2)NC(=O)N(Cc2nnc(-c3ccccc3Br)o2)C1=O (configuration not stated)	1.2
12	CCN(C(=O)CSc1nnc(Cc2cccc3ccccc23)n1N)C1CCS(=O)(=O)C1 (configuration not stated)	0.1
14	Cc1ccc(S(=O)(=O)c2c(N)n(CCN3CCOCC3)c3nc4ccccc4nc23)cc1C	i

(next part)
nr	SMILES	H5N1 CPE
26	COc1cc(CNCCc2ccccc2)ccc1OCC(=O)NC(C)(C)C	i
27	COc1ccc(-c2cn3c(C)c(C(=O)Nc4cccc(C)n4)sc3n2)cc1	i
28	O=C(c1ccc(F)cc1)N1CCC(N2CCOCC2)CC1	i
29	CC(=O)N1CCC2(CC1)C(C#N)=C(N)Oc1n[nH]c(C)c12	i
30	O=C1CCc2cc(S(=O)(=O)N3CCC(C(=O)NCCC4=CCCCC4)CC3)ccc2N1	i
31	CCc1nnc(NC(=O)c2c(C)nn(-c3ccccc3)c2Cl)s1	0.3
32	COCCOC(=O)C1=C(C)OC(N)=C(C(=O)OC)C12C(=O)Nc1ccccc12 (configuration not stated)	i
33	CCOc1ccccc1NC1=CC(=O)CC(c2ccccc2)C1 (configuration not stated)	i
34	O=C(NCCCN1CCC(Cc2ccccc2)CC1)C1CCN(S(=O)(=O)N2CCOCC2)CC1	i
35	CN(c1ccccc1C(=O)O)S(=O)(=O)c1ccc2c3c(cccc13)C(=O)N2	1.4
36	CCCc1nn(C(=O)c2ccccc2)c2c1C(=O)CC(C)(C)C2	i
37	COc1cc(C(=O)NCCC(=O)NCCCN2CCCCC2)cc(OC)c1OC	0.6
38	COc1ccc(NC(=O)N2CCc3ccccc32)cc1	0.2
39	COCc1nc2ccccc2n1CCOc1ccccc1OC	0.2
40	O=C(CCCN1C(=O)c2ccccc2C1=O)NCCC1=CCCCC1	i
41	CCOC(=O)c1cccc(NC(=O)CSc2nnc(CNc3ccc(C)cc3)n2CC)c1	i
42	CN1CCN(CC#CC(C)(O)C2CC3C=CC2C3)CC1 (configuration not stated)	i
43	COc1cccc(-c2nc(NCCN3CCOCC3)c3ccccc3n2)c1O	i
44	COc1ccc(CC2c3cc(OC)c(OC)cc3CCN2C)cc1OC (configuration not stated)	1.3
45	CCOc1ccc(C(=O)NCCC(=O)NCCCC(=O)O)cc1	0.1
46	CN(C)c1ccc(-c2nn3c(C4CCCCC4)nnc3s2)cc1	2.2
47	CCOC(=O)Cc1csc(NC(=O)C2CCCCC2C(=O)O)n1 (configuration not stated)	i
48	Cc1cccc(C(=O)NC2CC3CCCC(C2)N3S(=O)(=O)c2ccccc2)c1 (configuration not stated)	2.1
49	O=c1c2cnn(-c3ccccc3)c2ncn1Cc1ccccn1	0.9
50	CN(Cc1ccccc1)S(=O)(=O)c1ccc(NC(=O)C2CCCO2)cc1 (configuration not stated)	i
51	COCCN=C1Sc2nc3ccc(C)cc3cc2CN1Cc1ccco1	i
52	COc1ccc(-n2c(COc3ccc(C)cc3)nnc2SCc2ccc(C#N)cc2)cc1	i
53	Cc1cc(C)c2nc(N3CCN(C)CC3)c(C#N)cc2c1	1.3
54	Cc1cccc(C)c1NC1=NCCCCS1	i
55	O=C1C=C(O)CC(c2ccc(Cl)c(Cl)c2)C1 (configuration not stated)	i
56	Cc1nnc(SCC(=O)Nc2sc3c(c2C#N)CCCCC3)n1N	0.2
57	CC(=O)Nc1ccc(NC(=O)c2c(C)nc3ccccn23)cc1	0.2
58	COc1ccc(C(=O)Nc2cccc(OC(=O)c3ccc(C)c(C)c3)c2)cc1	i
59	Cc1cc(C(=O)Nc2cccc(/C=C/C(=O)O)c2)c(C)o1	i
60	COCC(=O)N(Cc1nc2ccccc2c(=O)[nH]1)Cc1cccs1	i
61	O=C(c1ccc(F)cc1)n1ccc(-c2cnc(-c3ccccc3)s2)n1	i
62	COc1ccc(S(=O)(=O)N2CCCC(C(=O)Nc3ccc(OC)c(OC)c3)C2)cc1 (configuration not stated)	i
63	CC(C)(C)CNc1cc(N2CCCC2)ccc1[N+](=O)[O-]	0.2
64	CCOC(=O)N1CCN(S(=O)(=O)c2cccs2)CC1	0.1
65	CCOC(=O)c1nn(-c2ccccc2F)c(-c2ccccc2)c1C(=O)c1ccccc1	i
66	CCOc1ccc(-n2c(SCc3ccc(C(=O)OC)o3)nc3c(c2=O)SCC3)cc1	3.4
67	CCN(CC)c1ccc(NC(=O)c2[nH]c(C)c(C(C)=O)c2C)c(C)c1	i
68	O=C(Oc1ccc(=O)n(-c2ccccc2)n1)c1ccc(Cl)cc1	i
69	O=C(OCn1nnc2ccccc2c1=O)C1CCN(S(=O)(=O)c2cccs2)CC1	i
70	COc1ccc(C(CNC(=O)c2ccc3c(c2)C(=O)N(CCC(C)C)C3=O)N2CCOCC2)cc1 (configuration not stated)	i
71	C=CCn1c(SCC)nc(O)cc1=O	1.6
72	Cc1cc(=O)c2c(O)c(O)ccc2o1	1.7
73	CC1CCN(CC(O)COc2ccc(F)cc2)CC1 (configuration not stated)	0.8
74	CCC1CCCCN1C(=O)CSc1nnc(-c2ccc(Cl)s2)o1 (configuration not stated)	0.0
75	Cc1cc(C)nc(N2CCC(C(=O)NCCc3ccc(F)cc3)CC2)n1	0.9

(further entries)
nr	SMILES	H5N1 CPE
76	CCn1cc(C(=O)NCc2ccco2)c(=O)c2cc(S(=O)(=O)N3CCC(C)CC3)ccc21	4.6
77	COc1ccc(CNC(=O)COC(=O)c2c[nH]c(=O)[nH]c2=O)cc1OC	0.2
78	O=C(NCc1ccccn1)C1CCN(S(=O)(=O)c2ccccc2)CC1	0.1
79	CCC(C)NC(=O)c1cc(OC)c(OC)c(OC)c1 (configuration not stated)	0.1
80	Cc1ccc(-c2noc(CCC(=O)NCCN3CCN(Cc4ccccc4)CC3)n2)cc1	1.2
81	O=C(CCCN1CCC(c2ccccc2)C1)c1ccc2c(c1)OCCO2 (configuration not stated)	i
82	CCc1ccccc1NC(=O)c1cnc2scc(C)n2c1=O	1.7
83	Cc1cc(N2CCN(C(=O)c3ccco3)CC2)n2nc(-c3cccc(F)c3)cc2n1	i
84	CCOc1ccc(NC(=O)Cn2nnc(C(=O)NCc3ccccc3OC)c2N)cc1	i
85	Cc1ccc2cc3cc(C(=O)N4CCC5(CC4)OCCO5)oc3nc2c1	0.8
86	CCOC(=O)c1nnc(-c2ccc(C)cc2)nc1Oc1ccccc1Cl	0.5
87	O=C(CSc1nc2ccccc2c(=O)n1-c1ccc(Cl)cc1)c1ccco1	i
88	O=C(c1ccc(COCC(F)(F)F)o1)N1CCCCCC1	i
89	O=C(O)c1ccc2c(c1)-c1nc3ccccc3n1C2=O	i
90	COc1cccc(NC(=O)CSc2nncn2-c2ccccn2)c1	i
91	CCn1c(=O)c2c(nc3n2CC(C)CN3CCc2ccccc2)n(C)c1=O (configuration not stated)	i
92	O=C(N/N=C/c1ccc([N+](=O)[O-])o1)c1cc(-c2cccc(Br)c2)nc2ccccc12	i
93	Cc1ccc(C)c(-n2c(CNC(=O)c3ccco3)nnc2SCC(=O)N2CCc3ccccc32)c1	i
94	Cc1cccnc1NC(=O)CCCN1C(=O)c2ccccc2C1=O	i
95	N/C(=N\O)c1ccc(NC(=O)c2ccc(Br)o2)cc1	i
96	O=C(Nc1ccccn1)C12CC3CC(C1)CC(C(=O)Nc1ccccn1)(C3)C2	0.3
97	COc1cc(OC)cc(C(=O)NCc2nc(-c3ccccc3)no2)c1	i
98	O=C(Nc1cccnc1)c1cc(F)cc(F)c1	1.2
99	O=C(CSc1nc(-c2ccco2)cc(C(F)(F)F)n1)Nc1ccc2c(c1)CCC2	i
100	CCn1cc(C(=O)N2CCOCC2)c(=O)c2cc(S(=O)(=O)N(C)C)ccc21	0.9
101	COc1ccccc1NC(=O)CSc1nc2ccccc2cc1Cc1ccccc1	1.1
102	COc1ccccc1NC(=S)NC(=O)c1ccc(-c2ccc(Cl)cc2)o1	i
103	COc1ccc(N(CC(=O)Nc2cc(OC)ccc2OC)S(C)(=O)=O)cc1	i
104	Cc1ccc(-n2c(C3CC3c3ccc(Cl)cc3)n[nH]c2=S)cc1 (configuration not stated)	2.1
105	CCOc1nc(Nc2ccc(OC)c(Cl)c2)nc(N2CCN(c3ccc(OC)cc3)CC2)n1	i
106	COc1cccc(-n2nc(-c3ccnn3-c3ccccc3)c(=O)n(C)c2=O)c1	2.2
107	Cc1ccc(CCN2C(=O)CCC2(C)C(=O)NCc2cccnc2)cc1 (configuration not stated)	i
108	CCCCCN(C(=O)CN(C)Cc1ccc(OC)cc1OC)c1c(N)n(CCCC)c(=O)[nH]c1=O	i
109	O=C(N/N=C\c1ccc(F)cc1)c1csnn1	0.3
110	COc1ccc2c(=O)c(-c3nc(C)cs3)coc2c1	i
111	Nc1nsc2ccccc12	2.1
112	COc1ccc(N2CCN(c3oc(COc4ccccc4)nc3C#N)CC2)cc1	2.6
113	CCc1cccc2c(SCC(=O)NCC3CCCO3)nc(-c3ccc(F)cc3)nc12 (configuration not stated)	0.9
114	COc1ccc(OC)c(CN2CCCC(CO)C2)c1 (configuration not stated)	0.5
115	CN(C(=O)c1cnccn1)c1nnc(-c2cnccn2)s1	i
116	CSc1nc(C)cc(-n2cc(F)c(=O)[nH]c2=O)n1	0.5
117	Cc1sc2nc(CN3CCCC3)nc(N3CCN(S(=O)(=O)c4cccs4)CC3)c2c1C	i
118	COC(=O)C1CCN(C(=O)c2cc(OC)c(OC)c(OC)c2)CC1	1.2
119	O=C(CN1CCC(C(O)(c2ccccc2)c2ccccc2)CC1)Nc1cc(Cl)ccc1Cl	i
120	COc1ccc(C)cc1-n1c(SCC(=O)Nc2cc(C)on2)nc2sc(C)c(C)c2c1=O	i
121	Cc1cc(C)cc(NC(=O)c2ccccc2CC[N+](=O)[O-])c1	0.8
122	CCCCNC(=O)COC(=O)c1ccc(NS(=O)(=O)c2ccc3c(c2)OCCO3)cc1	0.2
123	Cn1c(=O)cc(-c2ccccc2)c2ccccc21	1.2
124	COc1cc(/C=C(\C#N)c2nc3ccc(C)cc3[nH]2)c([N+](=O)[O-])cc1OC	i
125	CC(=O)CCS(=O)(=O)c1ccc(C)c(C)c1	i

Continued:
nr	SMILES	H5N1 CPE
126	CCOC(=O)C1=C(N)Oc2cc(C)n(C)c(=O)c2C1c1ccncc1 (configuration not stated)	0.4
127	Cc1cc(C)c(C)c(OCC(=O)N2CCCCCC2)c1	i
128	C=CCNC(=S)NNc1ncnc2sc3c(c12)CC(C)(C)OC3	1.6
129	C/C(=N\NS(C)(=O)=O)c1ccc(C)cc1	i
130	Cc1ccc[n+](CC(=O)Nc2cc(C(F)(F)F)ccc2Cl)c1	i
131	Cc1cc(C)nc(SCc2nc3ccccc3n2C)n1	1.9
132	Fc1ccc(Nc2ncnc3sc4c(c23)CCC4)cc1	i
133	CC(=O)c1c(OC(=O)c2ccc(C)cc2)c2ccccc2n1C	0.3
134	CC1CCCCN1C(=O)CSc1nc(N)cc(=O)[nH]1 (configuration not stated)	i

Gathered by group: those above with a nitro group on carbon.
nr	SMILES	H5N1 CPE
63	CC(C)(C)CNc1cc(N2CCCC2)ccc1[N+](=O)[O-]	0.2
92	O=C(N/N=C/c1ccc([N+](=O)[O-])o1)c1cc(-c2cccc(Br)c2)nc2ccccc12	i
121	Cc1cc(C)cc(NC(=O)c2ccccc2CC[N+](=O)[O-])c1	0.8
124	COc1cc(/C=C(\C#N)c2nc3ccc(C)cc3[nH]2)c([N+](=O)[O-])cc1OC	i
